Mtb betalactam = beta-lactam sensitization of Mtb H37Rv, H37Rv; M. tuberculosis H37Rv growth with meropenem, percent inhibition; hits of this screen are not shown here; inhibition, % at 25 µM; 330,000 tested, 0.27% active; AID 434955, 2010;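 active = about 74% or more and at least 40 points above the plate without the antibiotic, then above 30% in a dose series; inconclusive = first-round hits that could not be retested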;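 also: growth measured after seven days incubation then overnight dye step; 0% = bacteria only wells and 100% = bacteria with antibiotic; twin plates without the antibiotic show which effects depend on it; some results filed as inactive read as strong as hits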
Arbovirus anti = antivirals against arbovirus infection, primary screen, cell-based, full library, 10K replicate subset; arbovirus infection cell-based antiviral screen; inhibition, % at 10 µM; 200,000 tested, 0.37% active; AID 1251, 2008;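 active = inhibition from about 30%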;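 also: bluetongue infection of BSR cells; cell survival read as ATP light after 72 h; 0% = infected wells without compound and 100% = uninfected wells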
YopH inh = YopH tyrosine phosphatase inhibitors, primary screen, biochemical, fluorescence Ex485/Em525. inhibition, %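 (about 10 µM by stock and volumes)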. 140,000 tested, 0.16% active. YopH tyrosine phosphatase [Yersinia enterocolitica];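 active = inhibition of 50% or more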;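 also: controls were vehicle for no effect and minimum signal wells for full effect; inactives centre near -20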
Mtb growth = M. tuberculosis H37Rv growth inhibitors, H37Rv strain (AID 1626); inhibition, % at 10 µM; hits with a dose series show IC50 in µM; 220,000 tested, 0.95% active; M. tuberculosis H37Rv growth inhibition; higher % means a stronger effect;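 active = confirmed in a dose series; inconclusive = inhibition above 80% but not taken into the dose series; inactive = below 80% or under 30% at every dose of the series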;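 also: bacteria incubated seven days before Alamar blue readout; 0% = bacteria only wells and 100% = bacteria with antibiotic wells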
RecA splice inh = Mtb RecA intein splicing inhibitors, primary screen, biochemical, fluorescence, HTS | cell-free RecA intein splicing | AID 2221, 2009 | 290,000 tested, 0.75% active | inhibition, %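 (about 9 µM by stock and volumes)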; in the data active = inhibition above about 30%; inconclusive = no clear call, values can overlap the other calls;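 also: 0% = vehicle wells and 100% = reference inhibitor control wells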
Target sequence (P9WHJ3 whole entry, looked up, canonical isoform): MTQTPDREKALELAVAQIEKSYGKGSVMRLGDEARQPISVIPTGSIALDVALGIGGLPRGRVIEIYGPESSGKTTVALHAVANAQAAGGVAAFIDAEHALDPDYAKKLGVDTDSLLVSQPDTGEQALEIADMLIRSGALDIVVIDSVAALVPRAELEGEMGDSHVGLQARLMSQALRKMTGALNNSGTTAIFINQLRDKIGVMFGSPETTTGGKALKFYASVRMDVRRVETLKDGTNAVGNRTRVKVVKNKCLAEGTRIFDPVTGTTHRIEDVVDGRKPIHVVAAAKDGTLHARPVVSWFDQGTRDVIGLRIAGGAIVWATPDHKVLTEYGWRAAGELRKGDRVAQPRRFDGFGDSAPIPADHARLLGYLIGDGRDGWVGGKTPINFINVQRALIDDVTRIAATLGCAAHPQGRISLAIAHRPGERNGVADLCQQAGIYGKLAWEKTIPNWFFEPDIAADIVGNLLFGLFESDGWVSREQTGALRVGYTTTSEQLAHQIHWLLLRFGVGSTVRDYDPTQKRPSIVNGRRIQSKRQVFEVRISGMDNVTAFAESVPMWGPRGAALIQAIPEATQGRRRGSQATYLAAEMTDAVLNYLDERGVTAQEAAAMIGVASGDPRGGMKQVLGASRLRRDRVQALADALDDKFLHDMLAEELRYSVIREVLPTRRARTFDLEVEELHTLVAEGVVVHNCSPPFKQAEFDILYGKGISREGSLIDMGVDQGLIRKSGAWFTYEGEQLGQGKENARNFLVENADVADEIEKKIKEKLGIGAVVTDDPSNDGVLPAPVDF
Arbovirus anti repeat = further read-out of Arbovirus anti, marked with its call; inhibition, %; measured here: 10K subset replicate screen; many hits read low in the repeat;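 first of two repeat runs on a subset; 0% = infected and 100% = uninfected wells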
* hit, by the source's call; ? = inconclusive; nt = not tested or not shown. This is a subset (hit frequency here may not be typical).

SMILES	Mtb betalactam	Arbovirus anti	YopH inh	Mtb growth	RecA splice inh	others
Cc1c(OCC(=O)NC(Cc2ccc(Cl)cc2)C(=O)O)ccc2c3c(c(=O)oc12)CCCC3 (stereo unspecified)	-5	nt	nt	nt	4.5
CC(=O)N(CC(=O)O)c1ccccc1C(=O)O	-2	12	-63	-9%	-0.1
Cc1oc(-c2cc3c(cc2Cl)OCO3)nc1CN1CCCC(C(=O)N2CCOCC2)C1 (stereo unspecified)	-3	-7	nt	-8%	-2.2
N/C(=N\OC(=O)COc1ccc([N+](=O)[O-])cc1)c1ccncc1	-3	-9	nt	-1%	-0.7
C/C=C/C(=O)OCC(=O)Nc1cc(-c2cc(C)c(C)cc2C)nn1-c1ccccc1	5	9	-16	1%	2.4
O=C1O/C(=C/c2ccccc2)N=C1c1ccccc1	nt	2	-37	6%	3.8
CC(C)(C)NC(=O)CSc1nc2scc(-c3ccccc3)c2c(=O)[nH]1	6	24	-12	-5%	4.1
CC(OC(=O)c1ncc(Cl)c(Cl)c1Cl)C(=O)NC1(C#N)CCCCC1 (stereo unspecified)	-1	nt	nt	nt	4.3
CCc1ccc(OCCNC(=O)c2cccs2)cc1	-7	11	-9	10%	1.3
CCCCCCc1cc2cc(-c3nnc(-c4ccccc4O)o3)c(=O)oc2cc1O	?	22	-27	53%	-33
O=C(NCc1ccccc1Cl)C1CCCN(S(=O)(=O)c2cccc3nsnc23)C1 (stereo unspecified)	-1	9	-1	5%	0.2
CCc1nc(SCC(=O)c2ccc(C)c(C)c2)n[nH]1	-1	7	7	0%	5.1	Arbovirus anti repeat=9
CCn1cnc2sc(C(=O)Oc3cccc(C)c3)c(C)c2c1=O	97	-1	nt	<0.2µM*	-0.7
COC(=O)c1ccc(/C=C/c2c(-c3ccc(OC)cc3)oc3ccccc23)cc1	93	nt	nt	nt	-3.9
Oc1cccnc1SCc1ccccc1	28	nt	nt	nt	-1.1
CC(C)(C)c1ccc(C(CC(=O)O)NC(=O)Cc2ccc(F)cc2)cc1 (stereo unspecified)	-4	2	nt	2%	1.1
C/C(=N\Nc1ncc(Cl)cc1Cl)c1ccc(S(=O)(=O)NCc2ccco2)cc1	1	-2	-5	9%	-4.6
CCCN1CCN(C(=O)c2ccc3nc(CC)c(CC)nc3c2)CC1	-4	nt	nt	nt	-0.4
CCc1cccc2c(=O)c(C(=O)NCCCOC)c[nH]c12	-6	-4	nt	8%	-0.6
Cc1c(NC(=O)c2ccc(F)c(S(=O)(=O)N3CCOCC3)c2)c(=O)n(-c2ccccc2)n1C	-14	6	5	0%	-2.0
CCOC(=O)c1cc(NC(=O)c2ccc(C)cc2)c(=O)oc1C(F)(F)F	-3	0	nt	-5%	-0.1
Cc1ccc(S(=O)(=O)NCCC(=O)NNC(=O)c2ccccc2O)cc1C	-4	nt	nt	nt	5.9
CCOC(=O)/C(=C/C=C/c1ccccc1)NC(=O)c1ccccc1	2	5	-26	4%	2.4
C=C1CCN(Cc2ccccc2)S(=O)(=O)c2ccccc21	-4	nt	nt	11%	-1.3
COc1ccc(CC(=O)Nc2ccc(S(=O)(=O)NC(C)C)cc2)cc1	-7	7	1	-2%	2.9
COc1cc(/C=C(\C#N)c2nn(CCO)c(N)c2C#N)cc(OC)c1OC	3	-7	nt	-1%	0.2
C[C@@]12CC[C@H]3OC(=O)C=C3C1CC[C@@]13CC(CCC12)[C@](CO)(O[C@H]1O[C@H](CO)[C@@H](O)[C@H](O)[C@H]1O)C3 (stereo partly specified)	-2	nt	nt	nt	0.3
COc1ccc(OC)c(NC(=O)N2C[C@H]3C[C@@H](C2)c2cccc(=O)n2C3)c1	-6	nt	nt	nt	0.2
CCn1c2ccccc2c2cc(C#N)c(N)nc21	7	nt	nt	nt	0.5
COc1ccc(/C=N/n2c(=O)[nH]c3c([nH]c4ccc(C)cc43)c2=O)cc1CN1CCOCC1	nt	5	-27	7%	-1.1
COc1ccc(NC(=O)C2CCCN(S(=O)(=O)c3cnc[nH]3)C2)cc1 (stereo unspecified)	4	4	-11	-8%	nt
CN(CC(=O)Nc1ccccc1Cl)C(=O)c1ccccc1SCC(=O)N1CCCC1	-1	nt	nt	nt	2.4
COc1ccc(COC(=O)C2=C(C)NC(=O)NC2c2cccc(Br)c2)cc1 (stereo unspecified)	0	nt	nt	nt	-1.5
COc1ccc(-c2cc(C(=O)Nc3ccc(C(N)=O)cc3)c3ccccc3n2)cc1OC	64	3	nt	39%	-20
Cc1onc(-c2c(F)cccc2Cl)c1C(N)=S	-1	14	nt	-4%	-1.3
CCOC(=O)C1(Cc2cccc(OC)c2)CCN(CCO)CC1	0	0	nt	6%	-1.3
COc1ccc(N(C)S(=O)(=O)c2cccc(C(=O)NCC(c3ccco3)N3CCCC3)c2)cc1 (stereo unspecified)	0	nt	nt	nt	-2.2
COc1ccc(-c2noc(CN(C)CCC3CCCCO3)n2)cc1 (stereo unspecified)	0	8	nt	3%	-1.3
CCN(CC)S(=O)(=O)c1cc(NC(=O)C(C)N2CCN(c3ccccn3)CC2)ccc1C (stereo unspecified)	-6	4	nt	0%	-1.5
Oc1ccc(/C=N/N2CCN(C3c4ccccc4-c4ccccc43)CC2)cc1	-3	nt	nt	-4%	1.2
CCOC(=O)C(=Cc1ccc(Br)cc1)C(=O)OCC	66	nt	nt	8%	3.1
O=C(c1c(Cl)cccc1Cl)N1CCN(c2ncccn2)CC1	-3	nt	nt	nt	-1.2
CC(C)CCC[C@@H](C)[C@H]1CC[C@H]2[C@@H]3C(=O)C=C4C[C@@H](O)CC[C@]4(C)[C@H]3CC[C@]12C	96	nt	nt	nt	-1.6
CC(=C\c1ccccc1)/C=C1/SC(=S)N(CCCC(=O)O)C1=O	8	nt	nt	nt	13
Cc1cc(C)cc(N2C(=O)CC(Cn3nc(C)cc3C)C2=O)c1 (stereo unspecified)	-2	nt	nt	8%	nt
COc1cc(CCC(=O)Nc2ccc(C)c(S(=O)(=O)N(C)C)c2)cc(OC)c1OC	1	7	-20	0%	0.7
CCOc1ccc(NC(=O)C(=S)NC2CCCCC2)cc1	4	-1	nt	9%	-2.6
Cn1c(=O)cc(Cl)[nH]c1=O	-1	1	nt	1%	-9.0
O=C(COc1ccccc1O)Nc1ccc(Cl)cc1	-5	-7	-23	0%	-1.6
OC(COc1ccc2cc(Br)ccc2c1)CN1CCCC1 (stereo unspecified)	?	-43	-11	8%	3.0
COc1ccc(C(=O)OCC(=O)Nc2ccc(F)cc2F)cc1OC	-1	8	8	3%	-1.1
COc1ccc2[nH]c3c(=O)n(N)c(=O)[nH]c3c2c1	5	nt	nt	nt	-2.0
CNc1nc2c(c(=O)n(C)c(=O)n2C)n1Cc1ccccc1	-4	14	-23	7%	1.5
Cc1c(N=Cc2cccnc2)c(=O)n(-c2ccccc2)n1C	-2	-4	-6	-2%	-6.5
CCNc1ccc(P(=S)(N(C)C)N(C)C)cc1	4	9	-25	1%	2.3
CCCOc1ccc(N2C(=O)CC(N(Cc3ccc(OC)cc3)C(=S)Nc3ccccc3)C2=O)cc1 (stereo unspecified)	59	-8	-23	0%	1.5
COC1OC(COC(=O)c2ccccc2)C(OC(=O)c2ccccc2)C1OC(=O)c1ccccc1 (stereo unspecified)	-2	nt	nt	nt	-1.5
C/C(=N/NC(=O)c1cccs1)c1c(C)[nH]n(-c2nc3ccccc3s2)c1=O	nt	21	-16	57%	2.3
Cc1cc(C)[n+](-c2ccc(Oc3ccccc3)c(S(=O)(=O)[O-])c2)[nH]1	0	nt	nt	-11%	-11
CNC(=O)O/N=C/c1nn(C(=O)C(C)(C)C)cc1Br	2	nt	nt	-5%	nt

3 compounds from above, sorted by molar mass, rising:
SMILES	Mtb betalactam	Arbovirus anti	YopH inh	Mtb growth	RecA splice inh	others
CCc1ccc(OCCNC(=O)c2cccs2)cc1	-7	11	-9	10%	1.3
Cc1cc(C)cc(N2C(=O)CC(Cn3nc(C)cc3C)C2=O)c1 (stereo unspecified)	-2	nt	nt	8%	nt
CC(=C\c1ccccc1)/C=C1/SC(=S)N(CCCC(=O)O)C1=O	8	nt	nt	nt	13

Following part.
SMILES	Mtb betalactam	Arbovirus anti	YopH inh	Mtb growth	RecA splice inh	others
O=C(O)c1cc(N/N=C/C(Cl)=C/c2ccccc2)ccc1Cl	-1	24	nt	6%	8.2
CCn1cc(C2=NOC(C(=O)Nc3cc(C)nn3-c3ccccc3)C2)c(C)n1 (stereo unspecified)	?	-3	-26	5%	2.5
O=C(CSc1ccc(F)cc1)N1CCN(S(=O)(=O)c2ccccc2)CC1	0	-4	nt	7%	2.1
CC(Sc1nnc(-c2ccccc2)c(-c2ccccc2)n1)C(=O)Nc1ncc(Cl)cc1Cl (stereo unspecified)	7	-10	-36	-12%	7.6
CC/C(=N\NC(=O)c1ccc2c(c1)OCO2)c1ccccc1	4	nt	nt	nt	-0.3
CS(=O)(=O)c1ccc(Cl)c(NC(=O)COC(=O)CNC(=O)c2ccccc2)c1	-2	5	nt	0%	-0.1
CCCCNC(=O)c1cccc2c(=O)c(C)c(-c3ccccc3)oc12	6	-8	-38	-3%	-5.5
CCOC(=O)c1c(C)[nH]c(C)c1S(=O)(=O)NCCc1cccs1	0	nt	nt	nt	1.0
O=C(O)c1nn2cc(CCO)cnc2c1Cl	6	6	nt	-4%	-1.6
CN(C(=O)COC(=O)c1ccc(Br)o1)c1c(N)n(Cc2ccccc2)c(=O)[nH]c1=O	1	nt	nt	nt	-0.9
CC(=O)Nc1ccc(S(=O)(=O)N2CCN(CCN3CCOCC3)CC2)cc1Cl	-14	nt	nt	-2%	-0.7
CCO[C@H]1OC(C(=O)N2CCOCC2)=C[C@@H](c2ccccc2)[C@@H]1CCCO	-2	1	nt	1%	-1.3
Cc1ccc(C(=O)Cc2cc3ccccc3oc2=O)c(C)c1	2	nt	nt	nt	-0.5
CCCCn1c(N)c(N(CCC(C)C)C(=O)C2CC(=O)N(c3ccc(OC)cc3OC)C2)c(=O)[nH]c1=O (stereo unspecified)	-13	nt	nt	nt	2.2
C=CCn1c(SCC(=O)Nc2cc(NC(C)=O)ccc2OC)nnc1-c1ccccn1	4	-1	-43	-2%	0.3

15 compounds from above, ordered by length of the SMILES, lowest first.
SMILES	Mtb betalactam	Arbovirus anti	YopH inh	Mtb growth	RecA splice inh	others
O=C(O)c1nn2cc(CCO)cnc2c1Cl	6	6	nt	-4%	-1.6
Cc1ccc(C(=O)Cc2cc3ccccc3oc2=O)c(C)c1	2	nt	nt	nt	-0.5
CNC(=O)O/N=C/c1nn(C(=O)C(C)(C)C)cc1Br	2	nt	nt	-5%	nt
CC/C(=N\NC(=O)c1ccc2c(c1)OCO2)c1ccccc1	4	nt	nt	nt	-0.3
O=C(O)c1cc(N/N=C/C(Cl)=C/c2ccccc2)ccc1Cl	-1	24	nt	6%	8.2
CCCCNC(=O)c1cccc2c(=O)c(C)c(-c3ccccc3)oc12	6	-8	-38	-3%	-5.5
CCOC(=O)c1c(C)[nH]c(C)c1S(=O)(=O)NCCc1cccs1	0	nt	nt	nt	1.0
O=C(CSc1ccc(F)cc1)N1CCN(S(=O)(=O)c2ccccc2)CC1	0	-4	nt	7%	2.1
CC(=O)Nc1ccc(S(=O)(=O)N2CCN(CCN3CCOCC3)CC2)cc1Cl	-14	nt	nt	-2%	-0.7
CCn1cc(C2=NOC(C(=O)Nc3cc(C)nn3-c3ccccc3)C2)c(C)n1 (stereo unspecified)	?	-3	-26	5%	2.5
CS(=O)(=O)c1ccc(Cl)c(NC(=O)COC(=O)CNC(=O)c2ccccc2)c1	-2	5	nt	0%	-0.1
Cc1cc(C)[n+](-c2ccc(Oc3ccccc3)c(S(=O)(=O)[O-])c2)[nH]1	0	nt	nt	-11%	-11
CC(Sc1nnc(-c2ccccc2)c(-c2ccccc2)n1)C(=O)Nc1ncc(Cl)cc1Cl (stereo unspecified)	7	-10	-36	-12%	7.6
CN(C(=O)COC(=O)c1ccc(Br)o1)c1c(N)n(Cc2ccccc2)c(=O)[nH]c1=O	1	nt	nt	nt	-0.9
CCCCn1c(N)c(N(CCC(C)C)C(=O)C2CC(=O)N(c3ccc(OC)cc3OC)C2)c(=O)[nH]c1=O (stereo unspecified)	-13	nt	nt	nt	2.2
